StopGo reporter – High Throughput Screening for Foot and Mouth Disease Virus Antivirals; AID 1159524, 2015; human cells with a luciferase reporter of 2A StopGo recoding; control for the full effect not named in the record; Potency, µM (doses to about 57.9 µM), inactives show at the highest dose signal change, negative = less light; 410,000 compounds, 1.2% hits; active = well fitted falling curve with a large enough effect; inconclusive = small, poorly fitted or top-dose-only effect; inactive = no such curve, though single readings can be large or run the other way; tested in HEK293T cells; note: % is set by controls: 0 for no effect and ±100 for the full control effect; nearly all actives have a fitted effect of over 45% in size; luciferase light after 4 h
SARS PLP yeast – qHTS of Yeast-based Assay for SARS-CoV PLP; S. cerevisiae expressing SARS-CoV PLpro, growth rescue; control for the full effect not named in the record; Potency, µM (series often up to 32.9 µM), for inactives: top-dose activity, positive = growth rescue; 330,000 compounds, 0.19% hits; active means well fitted rising curve with a large enough effect; inconclusive means small, poorly fitted or top-dose-only effect; inactive means no such curve, though single readings can be large or run the other way; note: 0% is about no effect; nearly all actives have a fitted effect of over 55% in size; growth read by luminescence after 48 h
RE007 growth inh – qHTS Assay for Inhibitors of the HIV-1 protein Vpr; S. pombe RE007 Vpr strain, BacTiter-Glo ATP luminescence, 24 h; control for the full effect not named in the record; Potency, µM (series often up to 92.2 µM), for the others: top-dose activity change, negative = less growth; 360,000 compounds, 0.21% hits; AID 651644, 2012; active = well fitted falling curve with a large enough effect; inconclusive = small, poorly fitted or top-dose-only effect; inactive = no such curve, though single readings can be large or run the other way;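 note: % is set by controls: 0 for no effect and ±100 for the full control effect; nearly all actives have a fitted effect of over 50% in size; the assay follows cell death caused by Vpr and the record does not say whether a fall means rescue or toxicity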
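Fission yeast strain RE007, carrying one chromosomally integrated HIV-1 vpr copy, was seeded at OD 0.01 in PMG+AL medium with 23 nL pinned compound. After 24 h at 30 °C and 99% humidity, viability was read by BacTiter-Glo luminescence.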
* = called active by the depositor; u = inconclusive; [ ] = remark or other dose. Potency is the fitted concentration of half-maximal effect. Some of the compounds tested; the hit share may differ from the screen's.

The opening 14 compounds as a preview:
SMILES	StopGo reporter	SARS PLP yeast	RE007 growth inh
Cn1c(SCC(=O)NCC2CCCO2)nnc1-c1ccc(Cl)cc1 (configuration not stated)	-17%	-5%	2%
C[C@H]1CN([C@@H](C)CO)C(=O)Cc2cc(NC(=O)Cc3ccccc3)ccc2O[C@H]1CN(C)S(=O)(=O)c1cccs1	3%	9%	13%
O=C(OCC(=O)N1CCN(C(=O)c2ccco2)CC1)c1cccc(F)c1	20%	-2%	12%
O=C(Nc1ccccn1)C1CCN(S(=O)(=O)c2ccc3c(c2)OCCO3)CC1	27%	-2%	-14%
O=C(C[C@@H]1C/C=C\C[C@H](NC(=O)OCC2c3ccccc3-c3ccccc32)C(=O)OC[C@H]2CCCN2C1=O)NCCO	-8%	8%	-11%
C[C@H](CO)N1C[C@H](C)[C@@H](CN(C)Cc2ccncc2)Oc2c(NS(=O)(=O)c3ccc(F)cc3)cccc2C1=O	26%	-3%	-17%
CCCS(=O)(=O)c1nc(S(=O)(=O)c2ccc(C)cc2)c(NCCCN(C)C)s1	-3%	-3%	-6%
CC[C@]1(C(=O)OC)[C@H]2C(=O)N(Cc3ccccc3)C(=O)[C@H]2[C@H]2CN=C(SC)N21	-9%	0%	-16%
CC(C)Oc1ccc(S(=O)(=O)N2CCOCC2)cc1NC(=O)CC1CCCC1	-8%	5%	10%
CCN1C(=O)[C@H]2[C@@H](c3ccc(C)cc3)N3C(=O)N(c4cccc(Br)c4)C(=O)[C@@]3(Cc3ccccc3)[C@H]2C1=O	-17%	-22%	1%
CCN(CC)CCC(C)OC(c1ccccc1)c1ccccc1 (configuration not stated)	-19%	-2%	18%
COC(=O)[C@H](CC(C)C)N1Cc2cc(OC)cc(OC)c2-c2ccccc2S1(=O)=O	-21%	8%	2%
Cc1ccc(C(=O)NCc2ccccn2)cc1S(=O)(=O)N1CCOCC1	-16%	3%	-2%
O=C(Cn1cnc2c(OCc3ccccc3)ncnc21)NCCCN1CCCC1=O	-16%	2%	6%

Results, previewed entries included:
SMILES	StopGo reporter	SARS PLP yeast	RE007 growth inh
Cn1c(SCC(=O)NCC2CCCO2)nnc1-c1ccc(Cl)cc1 (configuration not stated)	-17%	-5%	2%
C[C@H]1CN([C@@H](C)CO)C(=O)Cc2cc(NC(=O)Cc3ccccc3)ccc2O[C@H]1CN(C)S(=O)(=O)c1cccs1	3%	9%	13%
O=C(OCC(=O)N1CCN(C(=O)c2ccco2)CC1)c1cccc(F)c1	20%	-2%	12%
O=C(Nc1ccccn1)C1CCN(S(=O)(=O)c2ccc3c(c2)OCCO3)CC1	27%	-2%	-14%
O=C(C[C@@H]1C/C=C\C[C@H](NC(=O)OCC2c3ccccc3-c3ccccc32)C(=O)OC[C@H]2CCCN2C1=O)NCCO	-8%	8%	-11%
C[C@H](CO)N1C[C@H](C)[C@@H](CN(C)Cc2ccncc2)Oc2c(NS(=O)(=O)c3ccc(F)cc3)cccc2C1=O	26%	-3%	-17%
CCCS(=O)(=O)c1nc(S(=O)(=O)c2ccc(C)cc2)c(NCCCN(C)C)s1	-3%	-3%	-6%
CC[C@]1(C(=O)OC)[C@H]2C(=O)N(Cc3ccccc3)C(=O)[C@H]2[C@H]2CN=C(SC)N21	-9%	0%	-16%
CC(C)Oc1ccc(S(=O)(=O)N2CCOCC2)cc1NC(=O)CC1CCCC1	-8%	5%	10%
CCN1C(=O)[C@H]2[C@@H](c3ccc(C)cc3)N3C(=O)N(c4cccc(Br)c4)C(=O)[C@@]3(Cc3ccccc3)[C@H]2C1=O	-17%	-22%	1%
CCN(CC)CCC(C)OC(c1ccccc1)c1ccccc1 (configuration not stated)	-19%	-2%	18%
COC(=O)[C@H](CC(C)C)N1Cc2cc(OC)cc(OC)c2-c2ccccc2S1(=O)=O	-21%	8%	2%
Cc1ccc(C(=O)NCc2ccccn2)cc1S(=O)(=O)N1CCOCC1	-16%	3%	-2%
O=C(Cn1cnc2c(OCc3ccccc3)ncnc21)NCCCN1CCCC1=O	-16%	2%	6%
Cc1nc(SCC(=O)N(C)C2CCS(=O)(=O)C2)c2ccccc2n1 (configuration not stated)	-7%	-5%	-4%
C[C@H](CO)N1C[C@H](C)[C@@H](CN(C)C(=O)Nc2ccc(C(F)(F)F)cc2)Oc2ccc(NC(=O)c3ccncc3)cc2C1=O	-16%	1%	-4%
Cc1ccc(NC(=O)CN(C)Cc2ccc(Cl)cc2)cc1	15%	-1%	-14%
COc1ccc(S(=O)(=O)Nc2ccc3c(c2)CC(=O)N([C@H](C)CO)C[C@H](C)[C@H](CN(C)C(=O)Nc2ccc4c(c2)OCO4)O3)cc1	13%	-3%	4%
O=S(=O)(NCC(c1cccnc1)N1CCOCC1)c1ccccc1 (configuration not stated)	-11%	3%	25%
O=C(CCCN=C1NS(=O)(=O)c2ccccc21)OCc1cc([N+](=O)[O-])cc2c1OCOC2	-14%	-1%	11%
CCOC(=O)c1cccc(C2=CC(=O)C[C@H](c3ccc(Cl)cc3)C2)c1	5%	1%	-3%
CCc1ccc(C(=O)COC(=O)C2=NN(c3ccccc3)C(=O)CC2)cc1	-10%	0%	-5%
CCOc1ccc(S(=O)(=O)N2CCC(C(=O)Nc3cc(S(C)(=O)=O)ccc3Cl)CC2)cc1	5%	3%	12%
O=C(NCC1OCCCN1S(=O)(=O)c1cc(F)ccc1F)C(=O)NC1CCCCC1 (configuration not stated)	-1%	6%	-8%
O=c1oc(CCCO)cc2ccc(Br)cc12	-3%	0%	5%
O=C(Nc1ccc(F)c([N+](=O)[O-])c1)c1cccs1	-18%	1%	-13%
COc1cc(C(=O)NC(CCSC)C(=O)OCC(=O)C(C)(C)C)cc(OC)c1OC (configuration not stated)	8%	0%	-5%
O=C(CCNC(=O)c1ccc([N+](=O)[O-])cc1)NCc1ccco1	-18%	-3%	-5%
C[C@H](CO)N1C[C@H](C)[C@@H](CN(C)C(=O)Nc2ccc3c(c2)OCO3)Oc2ccc(NC(=O)Cn3cnnn3)cc2C1=O	-16%	0%	-7%
O=C(C[n+]1ccc2ccccc2c1)c1cccc2ccccc12	0%	1%	-24%
CCCCNc1c(-c2ccc(OC)c(SC(C)CC)c2)nc2ccc(Cl)cn12 (configuration not stated)	-29%	19%	-15%
C[C@H]1[C@@H](c2ccccc2)O[C@@H](c2ccccc2Br)N1C	-28%	0%	-11%
COc1ccc(C(=O)COC(=O)c2cccs2)cc1	-19%	1%	u
O=C(OCc1ccccc1)/C(=C(\O)c1ccccc1Br)c1ccc(-c2ccccc2)cn1	-6%	2%	7%
O=C(Nc1ccc2c(c1)OCO2)c1ccc(CO)cc1	27%	4%	-4%
Cc1ccnc(NC(=O)c2ccc(S(=O)(=O)N3CCCCC3)cc2)c1	4%	0%	3%
CCCCCCSc1cc(-c2nc3cnccn3c2NCCCC)ccc1OC	u	1%	9%
Cc1cc(NC(=O)c2ccoc2C)ccc1Br	20%	5%	u
O=C(CCC(=O)NNC(=O)c1ccc(Cl)cc1Cl)NCc1ccccc1	-14%	-4%	9%
Cc1ccc(C)c(S(=O)(=O)N2CCN(C(=O)CCc3c[nH]c4ccccc34)CC2)c1	-26%	-6%	1%
O=C(COC(=O)Cn1cnc2ccccc21)Nc1ccccc1C(F)(F)F	-11%	2%	2%
COc1ccc(S(=O)(=O)N2CCOCC2)cc1NC(=O)c1cccs1	-15%	-6%	-9%
Cc1ccc(C2(C)NC(=O)N(CC(=O)N(C)CC(=O)Nc3cccc(F)c3)C2=O)cc1 (configuration not stated)	-14%	-4%	18%
CN=C1N(C)C[C@@H]2[C@@H]3C(=O)N(C)C(=O)[C@@H]3[C@](C)(C(=O)OC)N12	-6%	3%	7%
Cc1ccccc1CN(C)c1ccc(S(=O)(=O)N2CCN(C)CC2)cn1	-14%	5%	1%
COc1ccc(CCNC(=O)COC(=O)c2sc(C)nc2C)cc1	-3%	0%	-6%
Cc1ccc(C(=O)N2CCN(S(=O)(=O)c3ccccc3C#N)CC2)cc1S(=O)(=O)N1CCOCC1	-21%	6%	-13%
OCC[C@H]1C[C@H](O)[C@@H](O)[C@]2(CCc3ccccc3CO2)O1	-21%	-1%	-5%
COc1ccc(N/N=C(\C#N)C(=N)N2CCOCC2)cc1	29%	-8%	3%
O=C(COc1ccccc1F)NNC(=O)Cn1c(=O)cnc2ccccc21	-1%	4%	4%
CCCN(CCC)CCCNC(=O)c1nn(-c2cccc(OC)c2)c(=O)c2ccccc12	-18%	1%	-4%
c1ccc2c(-c3ccc(OCCN4CCCCC4)cc3)c(-c3ccsc3)sc2c1	u	3%	1%
CC1(C)Oc2ccc3ccc(=O)oc3c2[C@@H](O)[C@H]1O	-15%	4%	15%
O=C(CSc1nc2ccccc2c(=O)n1CCCN1CCOCC1)NCCc1ccccc1	12%	3%	-5%
O=C(NC1CCCCC1)c1cccc2c1C(=O)c1ccc(N3CCCC3)cc1S2(=O)=O	12%	1%	-21%
CN(C)c1cc[n+](CC[n+]2ccc(N(C)C)cc2)cc1	4%	-12%	-4%
CCCCC[C@@H]1C=C(C(=O)O)[C@H](c2ccc(Br)cc2)N1S(=O)(=O)c1ccc(C)cc1	-8%	-4%	-8%
CN(CC(=O)Nc1cc(S(=O)(=O)N2CCCC2)ccc1Cl)Cc1ccc2c(c1)OCO2	-20%	-10%	5%
Cc1cc(C)n(CC(=O)NNC(=O)COc2ccc(Cl)cc2Cl)n1	-16%	0%	31%
COC(=O)[C@]1(C)N[C@H](c2ccc(-c3ccc(OC)cc3)cc2)[C@@H]2C(=O)N(C)C(=O)[C@@H]21	-7%	-27%	12%

(listing goes on)
SMILES	StopGo reporter	SARS PLP yeast	RE007 growth inh
C=CCNC(=O)c1c(CSc2ccc(F)cc2)noc1C(=O)NCCC	-12%	2%	-1%
Cc1c(C(=O)N2CCN(c3ccc([N+](=O)[O-])cc3)CC2)oc2ccccc12	u	9%[6.58 µM]	0%
Cc1c(O[C@@H]2O[C@H](CO)[C@@H](O)[C@H](O)[C@H]2O)c(CO)c(O[C@@H]2O[C@H](CO)[C@@H](O)[C@H](O)[C@H]2O)c2c1O[C@@H](c1ccccc1)C[C@@H]2O	5%	-4%	42%
CCOC(=O)[C@H]1[C@H]2COc3cc(OC)ccc3[C@@H]2N2C(=O)c3c(C)cc(C)cc3NC(=O)[C@@]12C	-22%	-5%	1%
COc1ccc(C(=O)NCC(=O)OCC(=O)NC23CC4CC(CC(C4)C2)C3)cc1	-12%	5%	1%
COc1ccc(-c2nc(S(=O)(=O)c3ccccc3)c(NCCCN3CCOCC3)o2)cc1	20%	-3%	6%
C[C@H](CO)N1C[C@H](C)[C@@H](CN(C)S(=O)(=O)c2cn(C)cn2)Oc2c(NS(=O)(=O)c3cn(C)cn3)cccc2C1=O	-10%	-7%	-11%
CCCCC[C@@H]1C=C(C(=O)O)[C@H](c2ccc(C)cc2)N1S(=O)(=O)c1ccc(C)cc1	-12%	-4%	2%
CC(=O)N1CCN(CC(=O)Nc2ccccc2C(=O)Nc2ccccc2)CC1	-16%	0%	2%
Cn1c(CC(=O)NNC(=O)c2cncc(Br)c2)nc2ccccc21	-4%	0%	-3%
CC(C)(C)C(=O)Nc1ccc(C(=O)CN2C(=O)NC3(CCOc4ccccc43)C2=O)cc1 (configuration not stated)	2%	-2%	0%
COc1ccccc1-c1oc2ccccc2c1-c1ccc2cc[nH]c2c1	-21%	1%	-7%
CN(C)CCCN(C(=O)COc1ccccc1)c1nc2c(F)cccc2s1	-8%	-8%	-9%
CSc1ccc(CN2CCN(Cc3ccccc3Cl)CC2)cc1	-28%	1%	0%
CC(OC(=O)c1n[nH]c2ccccc12)C(=O)NC1CCCCC1C (configuration not stated)	-24%	-8%	-7%
CCOc1ccc(CC(=O)NCc2ccc3c(c2)cc(C)n3C)cc1	-17%	0%	9%
COc1cc(/C=N/Nc2ccc(C(F)(F)F)cn2)ccc1O	26%	-3%	-4%
O=C(CCOc1ccccc1)Nc1ccc(S(=O)(=O)Nc2ncccn2)cc1	-8%	8%	2%
CC1(C)CC(=O)C=C(c2cccc(CO)c2)C1	-15%	3%	0%
CNc1nc(C23CC4CC(CC(C4)C2)C3)cs1	-13%	5%	u
CCc1ccc(NC(=O)Cn2nnc(C(=O)NCc3cccs3)c2N)cc1	-8%	3%	-25%
COc1ccccc1CNC(=O)COC(=O)c1sc(C)nc1C	-1%	0%	0%
Cc1ccc(OCCCC(=O)Nc2ccc(Cl)c(S(=O)(=O)N3CCOCC3)c2)cc1	u	5%	0%
COCCNC(=S)N(CCc1c(C)[nH]c2ccc(F)cc12)Cc1cccs1	-25%	-6%	5%
O=C(CN1C(=O)NC2(CCCCCC2)C1=O)NCc1ccccc1	-3%	3%	11%

Screening data: PubChem, National Center for Advancing Translational Sciences (NCATS)
